VDR inh = vitamin D3 receptor (human) inhibition. P11473. 400,000 compounds, 0.93% hits. Potency, µM, without a hit: max response, negative = inhibition, usual class: inhibitors. VDR-SRC2-3 peptide fluorescence polarization, 2 h; active means well fitted inhibition curve with a large enough effect; inconclusive means small, poorly fitted or top-dose-only effect, or another doubt; inactive means no such curve, though single readings can be large or run the other way; further: series mostly up to about 120 µM
Target sequence (P11473 whole entry, looked up): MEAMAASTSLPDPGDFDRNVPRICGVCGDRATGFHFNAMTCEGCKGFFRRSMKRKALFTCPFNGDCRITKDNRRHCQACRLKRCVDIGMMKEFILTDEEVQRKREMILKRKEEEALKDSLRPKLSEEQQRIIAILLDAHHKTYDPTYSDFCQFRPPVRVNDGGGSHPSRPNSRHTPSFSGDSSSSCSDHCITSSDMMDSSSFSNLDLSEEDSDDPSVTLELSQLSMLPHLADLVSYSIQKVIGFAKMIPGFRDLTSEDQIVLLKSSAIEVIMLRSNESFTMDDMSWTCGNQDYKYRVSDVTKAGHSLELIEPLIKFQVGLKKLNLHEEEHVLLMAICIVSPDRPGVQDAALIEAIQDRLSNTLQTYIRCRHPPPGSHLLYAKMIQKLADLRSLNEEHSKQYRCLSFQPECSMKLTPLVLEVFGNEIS
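Two reagent solutions held at 4 deg C in the dark were dispensed, compounds pinned at 23 nl, and the mixture incubated 2 h at room temperature. Read-out: fluorescence polarization of VDR–SRC2-3 peptide binding.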
* = called active by the depositor; ? = inconclusive; & = joins results of further samples. On the % scale 0 is the no-effect control and ±100 the full control effect; potency means the concentration at half of the fitted maximal effect. An excerpt; the hit share may differ from the screen's.

SMILES	VDR inh
O=C(NCCN1CCN(c2ccccc2)CC1)C1CCN(S(=O)(=O)c2cccc3nonc23)CC1	7%
COc1ccc(CCNc2ccc(N3C(=O)CC(C)C3=O)cc2[N+](=O)[O-])cc1OC (configuration not stated)	-4%
COC(=O)N1C(=O)[C@](c2ccc(OC)cc2)(C(C)C)N1C(=O)OC	3%
O=C(NC(=S)Nc1cccc(NC(=S)NC(=O)c2ccccc2)c1)c1ccccc1	-3%
Cc1ccc(S(=O)(=O)N(Cc2ccccc2)Cc2ccco2)cc1	-7%
CCOc1ccc2ccccc2c1C(=O)N1CCN(c2ccccc2)CC1	-7%
CCCC(C)NC(=O)CSc1nnc(-c2c[nH]c3ccccc23)o1 (configuration not stated)	-9%
CCCN(CC(=O)Nc1ccc(Cl)cc1Cl)C(=O)/C=C/c1cccc([N+](=O)[O-])c1	-5%
O=C(Nc1ccc(Cl)cc1C(F)(F)F)C(Sc1nnc(-c2cccs2)o1)c1ccccc1 (configuration not stated)	-29%
Cc1cc(NCCCN2CCOCC2)n2c(nc3ccccc32)c1C#N	-6%
CCNC(=O)C1CC(=O)N(Cc2ccc3c(c2)OCO3)C(=Nc2ccc(OCC)cc2)S1 (configuration not stated)	1%
O=c1c(-c2ccc(F)c(F)c2)nc2cncnc2n1Cc1ccccc1Cl	-4%
Cc1c(OCc2ccccc2)cccc1OCc1ccccc1	2%
COc1cc(NC(=O)CSc2nc3c(c(=O)n(C)c(=O)n3C)n2C)cc(OC)c1	-6%
N#CC1(NC(=O)COC(=O)c2ccccc2[N+](=O)[O-])CCCCC1	-1%
O=C(CN1CCN(C(=O)c2cccs2)CC1)Nc1ccc(Br)cc1	-17%
O=C(Cn1c(=O)n(-c2cccc(Cl)c2)c(=O)c2sc3ccccc3c21)N1CCCC1	3%
COCCCNC(=O)C1CCN(c2nc(C)cc(C)n2)CC1	1%
NC(=O)c1cc([N+](=O)[O-])ccc1NCc1cccnc1	4%
CCOc1ccc(Cn2nnc(C(=O)Nc3cccc(SC)c3)c2N)cc1	-4%
CC(c1ccco1)N(C(=O)C12CC3CC(CC(C3)C1)C2)c1ccccn1 (configuration not stated)	4%
Cc1cc(C)c(C(=O)CSc2nnc(-c3ccccc3Br)o2)cc1C	-6%
Cc1cc(C)cc(N2CCn3c2nc2c3c(=O)n(Cc3ccc(Cl)cc3)c(=O)n2C)c1	1%
COc1ccc(CCNC(=O)COc2ccc(S(=O)(=O)NC(C)C)cc2)cc1OC	-9%
Cc1ccc(C#N)c(=O)n1CC(=O)Nc1ccccc1C(F)(F)F	3%

Remaining list, next part
SMILES	VDR inh
CC1=NCCN1S(=O)(=O)c1ccccc1[N+](=O)[O-]	-8%
Cc1cccc2c1-c1sc(C(=O)Nc3nccs3)cc1CO2	-18%
CCN(CC)C(=O)[C@H]1CC(CC(=O)NCc2cccc(C(F)(F)F)c2)C(=O)N2CCc3c([nH]c4ccccc34)[C@]12C (some centres not stated)	11%
CC1(C)CC(=O)C(N=Nc2cccc(F)c2C#N)=C(O)C1	-15%
CCC(C(=O)N1CCN(c2cccc(C)c2C)CC1)n1nc(C)c2sc3ccccc3c2c1=O (configuration not stated)	4%
COC(=O)c1c(NC(=O)COC(=O)[C@@H](NS(=O)(=O)c2ccccc2)C(C)C)sc2c1CCC2	5%
COc1ccccc1-c1sc2cc3c(cc2c1-c1ccc(O)cc1)OCO3	9%
CN(C)CCN1C(=O)C(=O)/C(=C(/O)c2ccc(F)cc2)C1c1ccccc1F (configuration not stated)	-8%
CC(=O)c1cccc(NC(=S)NCc2ccco2)c1	-24%
N=C1SCC(=O)N1c1ccccc1Cl	-16%
Cc1cc(NC(=O)c2cccc([N+](=O)[O-])c2)no1	-2%
CCOc1ncccc1C(=O)NCc1cccc(OC)c1	-3%
OCCN1CCSC1=S	-9%
CCOC(=O)c1c(-c2cccc(N)c2)cn2ccccc12	-8%
Cc1ccc(NC(=O)c2snc3ccc(Cl)cc23)cc1C	?
Cc1cc(C(=O)COc2ccc(F)cc2Br)c(C)n1C1CC1	-15%
CCOC(=O)c1nnc(-c2ccccc2)nc1Sc1ccccc1Cl	-3%
CCOC(=O)c1ccccc1NC(=O)CCc1nc(-c2ccc(C)cc2)no1	13%
CCN(CC)CCn1c2c(c(SCC(=O)Nc3cc(OC)cc(OC)c3)nc1=O)CCC2	1%
COc1cc(CC(=O)O)c([N+](=O)[O-])cc1OC	9%
CC(=O)N(Cc1ccccc1)c1ccc(C(=O)O)cc1	-3%
COC(=O)c1ccc(C2/C(=C(\O)c3ccc(OC)c(C)c3)C(=O)C(=O)N2c2cc(C)on2)cc1 (configuration not stated)	4%
Cc1ccc(NC(=O)C(=O)N2CCCC2)cc1Cl	11%
Cc1cc(C)nc(Nc2ccc(O)cc2)n1	13%
CCOc1ccc(S(=O)(=O)N2CCN(C(=O)Cc3ccc(S(=O)(=O)N4CCOCC4)s3)CC2)cc1	2%

Continued.
SMILES	VDR inh
Cc1ccc(NC(=O)CSCC(=O)Nc2nnc(C3CC3)s2)cc1	-5%
O=C(NCc1cccc(Cl)c1)c1cccn1-c1nnc(N2CCCC2)s1	2%
COCc1cc(Sc2ccc(OC)cc2)nc(-c2ccccc2)n1	3%
Cc1ccc(N(CC(=O)O)C2SC(=O)NC2=O)cc1 (configuration not stated)	12%
COc1ccc(NC(=O)c2nnn(CC(=O)Nc3cccc(C)c3C)c2N)c(OC)c1	17%
O=S(=O)(NCC(c1ccco1)N1CCc2ccccc2C1)c1ccc(F)cc1 (configuration not stated)	11%
N#CCCn1cc(C=C(C#N)C#N)c(-c2ccc(-c3ccccc3)cc2)n1	-26%
COC(=O)CCC(=O)NS(=O)(=O)c1ccc(N=NN2CCOCC2)cc1	-18%
Cc1cccc(C(=O)N[C@H](C(=O)NCCc2ccc(S(N)(=O)=O)cc2)C(C)C)c1	1%
CN(C)CCOC(=O)NCC12CC3CC(CC(C3)C1)C2	5%
COc1ccc(C(=O)NNC(=O)c2ccccc2[N+](=O)[O-])cc1Br	-1%
O=C(Nc1nc(-c2ccccn2)cs1)C1CCCC1	-14%
Cc1c(Cl)cccc1Nc1nn2c(=O)c3ccccc3nc2s1	-5%
Cc1ccc(S(=O)(=O)Nc2cccc3c2O[C@H](CN(C)C(=O)Nc2cccc4ccccc24)[C@H](C)CN([C@H](C)CO)C3=O)cc1	-5%
COc1ccc(C)cc1NC(=O)COC(=O)c1ccc2c(c1)OCCO2	-15%
COC(=O)c1ccccc1NC(=S)NC(NC(=O)c1ccco1)C(Cl)(Cl)Cl (configuration not stated)	-4%
CCCCCCCCCCCCCCCC(=O)OCC(COP(=O)(O)OCC[N+](C)(C)C)OC(=O)CCCCCCCCCCCCCCC (configuration not stated)	-10%
c1ccc(-c2ccc(CNC3CC3)cc2)cc1	-2%
CCOc1ncccc1C(=O)NNC(=O)c1ccc(NS(=O)(=O)c2cccs2)cc1	5%
Cc1ccc(S(=O)(=O)N(CC(=O)Nc2ccc3c(c2)OCO3)c2cc(Cl)cc(Cl)c2)cc1	-1%
O=C(NNC(=O)c1ccccc1[N+](=O)[O-])c1cnccn1	-7%
CC1CCN(S(=O)(=O)c2ccc(C(=O)Nc3nnc(-c4ccncc4)o3)cc2)CC1	-15%
Cc1nc2c(-c3ccccc3)c(C)nn2c(C)c1CCC(=O)NCc1ccc(F)cc1	-13%
COc1ccc(Cc2nc3ccc(C(=O)N(C)Cc4nccs4)cc3o2)cc1OC	-16%
O=C1Cc2ccccc2N1c1ccccc1	-1%

(next part)
SMILES	VDR inh
O=C(NCC(=O)N1CCN(c2ccccc2O)CC1)c1ccco1	-5%
Cc1ccc(NC(=O)c2ccc3nc[nH]c3c2)cc1C	-18%
CCOC(=O)c1oc2ccccc2c1NC(=O)CN1CCN(C)CC1	-15%
Cc1ccc(C(=O)NC(NCC2CCCO2)C(Cl)(Cl)Cl)cc1 (configuration not stated)	6%
Cc1nc2ccccc2c2oc(C(=O)NC3CC3)cc12	-10%
Cc1ccccc1N(C(=O)c1ccccn1)C(C(=O)NCc1ccccc1)c1ccncc1 (configuration not stated)	-7%
O=C(O)c1c(Cl)c(Cl)c(Cl)c(Cl)c1C(=O)N1CCCCCC1	-6%
Cc1nc2c(C)c(C)c(C)c(C)c2nc1C	-14%
Cc1ccc(NC(=O)C2CCC(CNS(=O)(=O)c3ccc4c(c3)CCCC(=O)N4)CC2)c(C)c1 (configuration not stated)	20%
OCCC1CN(Cc2ccc3cc(Cl)ccc3n2)CCN1Cc1ccsc1 (configuration not stated)	26%
Cc1cccn2c(=O)c(/C=C(\C#N)c3nc4ccccc4n3C)c(Oc3ccc(Br)cc3)nc12	-8%
NC(=O)NC(=O)COC(=O)c1sc2ccccc2c1Cl	?
CCOC(=O)C1CCCN(c2c(C(=O)c3ccccc3)cnc3ccc(F)cc23)C1 (configuration not stated)	-8%
Cc1nc2n[nH]c(N)c2c2c1COC(C)(C)C2	9%
COc1ccc(Cl)c2sc(N3CCN(C(=O)C4=COCCO4)CC3)nc12	?
Cn1c(CO)cnc1SCc1ccc([N+](=O)[O-])cc1	12%
Cc1ccc(C)c(COC(=O)c2cc([N+](=O)[O-])ccc2N2CCOCC2)c1	-5%
C[N+]1(CCOC(=O)C2(c3ccccc3)CCCC2)CCCCC1	-21%
COCc1[nH][nH]c(=O)c1C=Nc1ccc(F)cc1F	11%
COc1ccc(C)cc1NC(=O)C1CCCCN1S(=O)(=O)c1ccccc1 (configuration not stated)	-7%
COCCN(C(=O)c1ccccc1)c1nc(-c2ccc(OC)cc2)cs1	-4%
O=C(/C=N/O)NCCCN1CCCCCC1	6%
CCc1ccccc1NC(=O)c1ccc(F)c(S(=O)(=O)N2CCC(C(N)=O)CC2)c1	-5%
Cc1cc(C)cc(N(CC(=O)Nc2cccc(C)c2C)S(=O)(=O)c2c(C)[nH]c(=O)[nH]c2=O)c1	-11%&-3%
CCN(c1ccccc1)S(=O)(=O)c1cc(-c2onc(C)c2C)ccc1OC	4%

(continued)
SMILES	VDR inh
COc1ccc(CCCc2n[nH]c(=S)n2C)cc1C	-5%
CC(C)Sc1cc(N2CCOCC2)nc(-c2ccc(Cl)cc2)n1	-3%
O=C(CSc1nc(-c2ccccc2)nc2c1Cc1ccccc1O2)N1CCCCC1	-10%
CC1=C(C(=O)Nc2ccc(F)cc2)C(c2ccc(C)o2)C2=C(CC(C)(C)CC2=O)N1 (configuration not stated)	-11%
Cc1c(C(=O)N2CCCCC2)c(S(=O)(=O)Nc2ccc(F)cc2F)c(C)n1C	11%
CCOC(=O)c1c(C(=O)OCC)c(C)n(CCc2ccc(OC)c(OC)c2)c1C	-9%
Cc1ccc(NC(=S)N2CCN(S(C)(=O)=O)CC2)cc1	-11%
CC(=O)N1CCN(c2ccc(N=Cc3c(O)n(Cc4ccccc4)c(=O)[nH]c3=O)cc2)CC1	-3%
CC(NC(=O)CN1C(=O)NC2(CCCCC2)C1=O)c1ccc(S(N)(=O)=O)cc1 (configuration not stated)	-5%
CCc1ccccc1NC(=S)N(Cc1cccnc1)Cc1ccco1	-18%
COc1cccc(C(=O)NC(=S)N2CCN(c3ccc(C(F)(F)F)cc3[N+](=O)[O-])CC2)c1	-21%
CCOc1ccc(N2C(=O)S/C(=C\c3ccc(O)c(OC)c3)C2=O)cc1	?
Cc1cc(C)cc(NC(=O)c2cccc3c2C(=O)N(C2CCCCC2)C3)c1	3%&-14%
ON=C1c2ccccc2-c2ccc(O)cc21	1%
CCOC(=O)c1nc2cc3n(c(C)c-2c1C)C(C)C(C)=C3C (configuration not stated)	-8%
COc1cccc(CN(C)C(=O)CNC(=O)c2ccc(-c3ccccc3)cc2)c1OC	-3%
COc1ccc(C2CCN(Cc3cccnc3)CC2O)cc1 (configuration not stated)	7%
Cc1cccc(Cn2c(SCc3ccc(C(=O)NCc4cccs4)cc3)nc3ccncc32)c1	2%
COc1ccc(N2C(=O)CSCC2=O)cc1OC	9%
COc1ccc(C)cc1NS(=O)(=O)c1cc(Br)cc2c1N(C(C)=O)C(C)C2 (configuration not stated)	-2%
CN(C)C1=NC(=O)/C(=C\c2ccccc2)S1	-9%
O=C(c1ccco1)N1CCC2(CCN(Cc3cc(C(F)(F)F)cc(C(F)(F)F)c3)CC2)CC1	?
Cc1cccc(C)c1NC(=O)N1CC=C(n2c(=O)[nH]c3ccccc32)CC1	-1%
O=C(Cn1c(=O)n(Cc2ccc(Cl)cc2)c(=O)c2cccnc21)Nc1ccccc1C(F)(F)F	-3%
COc1cc(N)c(Br)cc1C(=O)O	10%
Cc1cc2n(n1)C(c1ccc(N(C)C)cc1)Nc1ccccc1-2 (configuration not stated)	17%
O=C1CC(CCC(=O)NC2CC2)c2ccccc2N1 (configuration not stated)	2%
